Bioassay records: PubChem BioAssay, Southern Research Institute
Mtb growth = Mycobacterium tuberculosis H37Rv growth inhibition, cell based, confirmatory dose response (AID 1949); M. tuberculosis H37Rv growth inhibition; inhibition, % at 10 µg/mL; hits with a dose series show IC50 in µg/mL; most inactive calls were filed without a number and no value below 0 was filed; hit rate 1.6% among 100,000;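 active = confirmed in a dose series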;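 also: bacteria grown 7 days with compound before Alamar blue readout; 0% = untreated bacteria and 100% = reference antibiotic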
The depositor's hits bear a star; i = inactive. This is a subset; rates above refer to the full screens.

#	Molecule	Mtb growth
1	COc1ccc(-c2ncc3ccccn23)cc1	i
2	CC(C)C(NS(=O)(=O)c1c(Cl)cccc1Cl)C(=O)O (stereo not drawn)	i
3	Cc1ccc(N2C(=O)NC(NS(=O)(=O)c3ccccc3)(C(F)(F)F)C2=O)cc1C (stereo not drawn)	i
4	Cn1c(=O)n(C)c2cc(S(=O)(=O)NC3CCCCC3)ccc21	0%
5	O=Cc1ccc(OC(=O)/C=C/c2ccccc2Cl)cc1	i
6	CCOC(=O)c1cc(-c2ccccc2)sc1NC(=O)CN1C(=O)c2ccccc2C1=O	i
7	Cc1cccc(NC(=S)Nc2ccc(Oc3ccccc3)cc2)n1	i
8	O=C(c1ccc(Br)cc1)N1CCC(C(=O)N2CCN(c3ccccc3)CC2)CC1	i
9	CC1CN(S(=O)(=O)c2ccc(F)c(Cl)c2)CC(C)O1 (stereo not drawn)	i
10	CCN(CC)CCN1C(=O)C(O)=C(C(=O)c2cccs2)C1c1cccnc1 (stereo not drawn)	i
11	CC1=C(C(=O)OCC2CCCO2)C(c2c(F)cccc2Cl)NC(=O)N1C (stereo not drawn)	i
12	O=C(Nc1ccc(Br)cn1)c1cc2ccccc2o1	i
13	CCc1ccc(NC(=O)CN(c2ccccc2Cl)S(=O)(=O)c2ccc(C)cc2)cc1	i
14	O=C(c1cccc(C(F)(F)F)c1)N1CCN(S(=O)(=O)c2ccccc2)CC1	i
15	O=C(Cc1cccs1)Nc1nnc(Cc2ccccc2)s1	1%
16	COc1cccc(Oc2coc3cc(OC(=O)N(C)C)ccc3c2=O)c1	i
17	O=C(CSc1ccccc1)Nc1ccccc1I	i
18	Cc1cc(Cl)ccc1NC(=S)Nc1cccnc1	i
19	CCCCC(=O)Nc1ccc(C(=O)Nc2ccc([N+](=O)[O-])cc2OC)cc1	2%
20	CCCS(=O)(=O)N1CCN(C2CCCC2)CC1	i
21	COC(=O)C1=C(C)NC2=C(C(=O)CC(c3ccc(F)cc3)C2)C1c1cc(OC)c(OC)c(OC)c1 (stereo not drawn)	i
22	N#CCCn1cc(C(=O)Nc2nccs2)c(-c2ccccc2)n1	i
23	COC(=O)CNC(=O)C1Cc2ccccc2CN1S(=O)(=O)c1ccc(F)cc1 (stereo not drawn)	i
24	NC(=O)c1c(NC(=O)c2cccs2)sc2c1CCCCCC2	0%
25	O=S(Cc1ccccc1)c1nc2ccccc2s1 (stereo not drawn)	3.1µg/mL*
26	O=C(Nc1sc2c(c1C(=O)N1CCCCCC1)CCC2)c1ccccc1F	i
27	O=C(NCCSCc1ccco1)c1ccc(-c2ccccc2)cc1	i
28	COc1ccc2nc3sc(C(=O)O)cc3cc2c1	4%
29	O=[N+]([O-])c1cccc(COc2c(Cl)cc(CO)cc2Cl)c1	7%
30	COC(=O)c1c(C)nc2n(CCN3CCCCC3)c3ccccc3n12	i
31	CN1C(=O)c2ccc(NC(=O)COc3ccc(C(C)(C)C)cc3)cc2C1=O	i
32	Cn1c2ccccc2c2nnc(SCCCC(=O)c3ccc(F)cc3)nc21	i
33	Cc1cccc(C(=O)Nc2ccc(S(=O)(=O)Nc3ccc(I)cc3)cc2)c1	i
34	N#Cc1nc(COc2ccc(Cl)cc2)oc1N1CCCCCC1	8%
35	CCOC(=O)c1cccc(NC(=S)NC(=O)c2cccs2)c1	14%
36	Cc1ccc(NC(=O)CSc2nnc(C)n2-c2ccc(Cl)cc2)c(Br)c1	i
37	Cc1ccc(Cl)cc1N1CCN(CC(O)COc2ccc(C(=O)c3ccccc3)cc2)CC1 (stereo not drawn)	2.9µg/mL*
38	CCC(=O)N(Cc1cc2cc(C)ccc2[nH]c1=O)c1ccc(C)c(C)c1	i
39	COc1ccccc1C1CC(=O)Nc2cc3c(cc21)CCC3 (stereo not drawn)	1%
40	COc1c(Cl)cc(Cl)cc1C(=O)NC(=S)Nc1ccc(I)cn1	2%
41	COc1cc(C(=O)Nc2sc3c(c2C(=O)NC2CCS(=O)(=O)C2)CCCC3)cc(OC)c1OC (stereo not drawn)	1%
42	CCCC(=O)Nc1ccccc1NC(=O)C(C)Oc1ccc(OC)cc1 (stereo not drawn)	i
43	CC(NC(=O)c1ccc(C(=O)NC(C)c2ccccc2)nc1)c1ccccc1 (stereo not drawn)	i
44	COc1cc([N+](=O)[O-])ccc1NC(=O)Nc1cccc(C(C)=O)c1	i
45	COc1ccc(CC2(O)C(=O)Nc3ccc(Br)cc32)cc1OC (stereo not drawn)	i
46	CCCCc1ccc(NC(=S)N2CCC(O)CC2)cc1	0%
47	COc1ccccc1NC(=O)c1sc2nc(N3CCOCC3)c3c(c2c1N)CC(C)(C)OC3	i
48	C1CCC2(CC1)OCC1(CO2)COC2(CCCCC2)OC1	3%
49	Cc1cnn(C(=S)NCc2ccco2)c1	i
50	O=C(Cc1cccs1)Nc1cccc(Oc2ccc3c(c2)C(=O)NC3=O)c1	i

Screen by screen, from the results shown:
Mtb growth, compounds 30 to 40: i, i, i, i, 8%, 14%, i, 2.9µg/mL*, i, 1%, 2%

Other compounds:
#	Molecule	Mtb growth
51	O=C(Nc1nnc(-c2ccncc2)s1)C1CCCO1 (stereo not drawn)	i
52	Cc1ccc(NC(=O)Nc2ccc3oc(C)nc3c2)cc1	i
53	N#C/C(=C\c1cccc(F)c1)S(=O)(=O)c1ccccc1	i
54	COc1cc2c(cc1OC)CN(S(=O)(=O)c1ccc(Cl)c(C(F)(F)F)c1)CC2	i
55	Cc1ccc(C2C=C(c3ccccc3)Nc3nc(N4C(=O)CCC4=O)nn32)cc1 (stereo not drawn)	i
56	CCn1c(=O)n(CC)c2cc(NS(=O)(=O)c3ccccc3)c(Br)cc21	i
57	FC(F)(F)COc1nc(N2CCOCC2)nc(N2CCN(Cc3ccccc3)CC2)n1	i
58	CCCCC(=O)Nc1ccc(C(=O)N(CC)c2ccccc2C)cc1	i
59	CC1CN(CCCOc2ccc(I)cc2)CC(C)O1 (stereo not drawn)	8%
60	COc1cccc(OC)c1OCCCCNCC1CCCO1 (stereo not drawn)	i
61	C/C=C/c1ccc(OCCCCN2CCNCC2)c(OC)c1	i
62	O=C(c1ccccc1F)N1CCN(c2ccc([N+](=O)[O-])c(N3CCN(c4ccccc4)CC3)c2)CC1	i
63	C=CCn1c(SCC(=O)N2CCCCCC2)nc2sc3c(c2c1=O)CCCC3	i
64	COc1ccc(N2CCN(C(=O)Nc3ccc(Cl)cc3)CC2)cc1	i
65	COc1ccccc1Nc1nc(N)nc(CN2CCC(Cc3ccccc3)CC2)n1	38µg/mL*
66	CCOc1ccc(-c2nc3sc4c(c3c(=O)[nH]2)CCC4)cc1	i
67	COc1ccccc1OCC(=O)Nc1ccc(-c2nc3ccccc3o2)cc1	i
68	CC(=O)Nc1cccc(OCC(=O)Nc2ccc(C)c(C)c2)c1	i
69	COc1ccc(Cl)cc1N(CC(=O)Nc1cccc(Cl)c1)S(C)(=O)=O	1%
70	CCc1nc(-c2ccccc2)cc(=O)[nH]1	i
71	CCOc1ccc(N(CC(=O)NCc2ccc(C)cc2)S(=O)(=O)c2ccc(OC)c(OC)c2)cc1	i
72	Cc1ccc(CC(=O)NCCCn2ccnc2)cc1	i
73	CCCc1cc(=O)oc2cc(OC(=O)c3ccccc3)c(Cl)cc12	i
74	COc1ccc(C2=NN(C(C)=O)C(c3ccccc3C)C2)cc1OC (stereo not drawn)	i
75	Cn1cc(/C=C/c2nc3ccc(I)cc3c(=O)n2-c2ccccc2)c2ccccc21	i
76	N#Cc1cccc(NC(=O)CCCN2C(=O)c3ccccc3C2=O)c1	i
77	CC(=O)C(Sc1nnc(-c2ccc(Cl)cc2)n1-c1ccccc1)C(C)=O	i
78	COc1cccc(C(=O)OCc2cccc(C(=O)Oc3ccccc3)c2)c1	9.2µg/mL*
79	Cc1cc(Cl)c(OCCOCCN2CCC(C)CC2)c(Br)c1	i
80	CC(=O)c1ccc(NC(=S)N2CCN(CCN3C(=O)c4cccc5cccc(c45)C3=O)CC2)cc1	i
81	O=C(CC1CCCCC1)NCCC1=CCCCC1	i
82	C=CCNC(=S)NNC(=O)COc1cccc(Cl)c1	i
83	CN1CCc2nc3sc4c(=O)[nH]c(=O)[nH]c4c3cc2C1	i
84	CCOC(=O)Cn1c(CCC(=O)O)ccc1-c1ccc(F)cc1	i
85	CCN(CC)S(=O)(=O)c1ccc(Cl)c(C(=O)Oc2cccc3cccnc23)c1	2.5µg/mL*
86	C=CCn1c(SCC(=O)Nc2cc(C)c(C)cc2Br)nnc1-c1cc2ccccc2o1	4%
87	COc1ccc(NC(=O)c2cc(Cl)ccc2NC(=O)c2cccc([N+](=O)[O-])c2)cc1	i
88	CCOC(=O)c1c(C)nc2cc(C(=O)O)nn2c1C	i
89	COc1cccc(C(=O)Nc2ccc(Br)cc2C)c1	i
90	CCOCC(=O)Nc1ccc(S(=O)(=O)N2CCOCC2)cc1	2%
91	Cc1ccc(SCCNC(=S)Nc2ccccc2)cc1	1%
92	COc1ccc(C(=O)Nc2cccc(C(=O)NCc3ccccc3)c2)cc1	1%
93	Cc1cc(=O)n2[nH]c(-c3ccccc3)cc2n1	i
94	O=C(CN(Cc1ccc(F)cc1)S(=O)(=O)c1ccc(Cl)cc1)NCc1ccncc1	3%
95	Cc1cc(C)nc(N2CCN(c3ncnc4sc(C)c(C)c34)CC2)n1	31%
96	Cc1cc(NS(=O)(=O)Cc2ccccc2)no1	i
97	COc1ccc(N2CCN(C(=O)COc3cc(C)c(Br)c(C)c3)CC2)cc1	4%
98	COc1ccc(NC(=O)C(C)Oc2ccc(Cl)cc2C)c([N+](=O)[O-])c1 (stereo not drawn)	5%
99	Cc1cccc(NC(=S)NNC(=O)c2ccccc2Br)c1	i
100	COc1ccc(C(=O)Oc2ccccc2Cl)cc1I	i

Following part
#	Molecule	Mtb growth
101	COC(=O)Cc1ccc(NC(=O)c2ccc(OC)c(OC)c2)cc1	i
102	Cc1cc(OCC(=O)c2cccc([N+](=O)[O-])c2)c2c(C)c(C)c(=O)oc2c1	i
103	COc1cccc(C2NC(=O)NC3=C2CCc2ccccc23)c1 (stereo not drawn)	i
104	O=C1NC(Cc2c[nH]c3ccccc23)C(=O)N1c1ccc(Cl)cc1 (stereo not drawn)	i
105	CC(=O)c1cccc(NC(=O)c2ccccc2N(Cc2ccccc2)S(C)(=O)=O)c1	i
106	O=C(NC(=S)N1CCN(Cc2ccccc2)CC1)c1ccccc1	i
107	COC(=O)CNC(=O)c1cn(-c2ccccc2)nc1-c1ccccc1	i
108	O=C(CNS(=O)(=O)c1ccccc1)Nc1ccc(Cl)c(C(F)(F)F)c1	i
109	CC(=O)N1CCN(S(=O)(=O)N2CCCCC2)CC1	i
110	O=C(CSc1nnc(CCc2ccccc2)n1-c1ccc(Cl)cc1)c1ccccc1	6%
111	Cc1ccc(NS(=O)(=O)c2ccc(NS(=O)(=O)c3ccc(F)cc3)cc2)cc1	i
112	Cc1cc(OCCCn2cncn2)ccc1C(C)C	i
113	CC(C)NC(=O)C(=O)NCCN1CCN(C(=O)c2ccccc2Cl)CC1	i
114	O=C(Nc1cccc(C(=O)N2CCN(c3ccc([N+](=O)[O-])cc3)CC2)c1)c1ccccc1	7%
115	CCOC(=O)c1ccc(NC(=O)C2CCN(C(=O)c3ccc(-c4ccccc4)cc3)CC2)cc1	49%
116	Cc1ccc(/C(C#N)=C\c2cccn2C)cc1	6%
117	COc1ccc2cc(-c3ccc(F)cc3)c(=O)oc2c1	i
118	Cc1cccc(NC2CC(=O)N(c3cc(Cl)ccc3C)C2=O)c1 (stereo not drawn)	i
119	CCCCNS(=O)(=O)c1cccc2nonc12	4%
120	CN(C(=O)Cn1cc(C#N)c2cc(Br)ccc21)c1ccccc1	i
121	CCOc1ccccc1NC(=O)c1ccc(COc2ccccc2OC)cc1	2%
122	CCc1sc(NC(=O)c2ccc(OC)c(OC)c2)nc1-c1ccccc1	i
123	O=C(CSc1ccc(Cl)cc1)Nc1ccc2c(c1)Cc1ccccc1-2	i
124	O=C1NN(c2cccc(Cl)c2)C(=O)/C1=C/c1cccc(Br)c1	14%
125	COc1ccc(C2NC(=O)NC(C)=C2C(=O)Nc2cc(C)cc(C)c2)c(OC)c1 (stereo not drawn)	3%

Quoted at random: six entries already listed
#	Molecule	Mtb growth
112	Cc1cc(OCCCn2cncn2)ccc1C(C)C	i
104	O=C1NC(Cc2c[nH]c3ccccc23)C(=O)N1c1ccc(Cl)cc1 (stereo not drawn)	i
113	CC(C)NC(=O)C(=O)NCCN1CCN(C(=O)c2ccccc2Cl)CC1	i
103	COc1cccc(C2NC(=O)NC3=C2CCc2ccccc23)c1 (stereo not drawn)	i
105	CC(=O)c1cccc(NC(=O)c2ccccc2N(Cc2ccccc2)S(C)(=O)=O)c1	i
122	CCc1sc(NC(=O)c2ccc(OC)c(OC)c2)nc1-c1ccccc1	i

Other results.
#	Molecule	Mtb growth
126	C=CCNC(=O)c1ccccc1NC(=O)CN(c1ccc(OCC)cc1)S(C)(=O)=O	i
127	CCCCc1nnc(NC(=O)C(Cc2ccccc2)N2C(=O)c3ccccc3C2=O)s1 (stereo not drawn)	i
128	NC(=O)c1ccccc1NC(=O)CCSc1ccccc1	i
129	Fc1c(F)c(F)c(SCCc2ccncc2)c(F)c1F	i
130	Cc1sc2nc3scc(CC(=O)NCCO)n3c(=O)c2c1C	5%
131	O=C(NC(=S)Nc1ccc(F)c(Cl)c1)c1cc(Br)ccc1Cl	i
132	CCOC(=O)c1ccc(NC(=O)C(C)N2C(=O)C3CC=C(Cl)CC3C2=O)cc1 (stereo not drawn)	i
133	CCC(CC)c1nnc(NC(=O)c2sc3ccccc3c2Cl)s1	12%
134	C=CCNC(=S)Nc1ccc(Oc2ccccc2)cc1	i
135	O=C(CCC1CCCC1)Nc1ccc(Br)cn1	0%
136	O=C(O)c1ccc(CSCc2ccco2)cc1	6%
